High-throughput results from PubChem BioAssay.
ClpP mod: qHTS Assay for Activators of ClpP. ATP-dependent Clp protease proteolytic subunit (Bacillus subtilis (strain 168)), P80244. purified B. subtilis ClpP, FRET peptide cleavage, 20 min. Potency, µM (top dose mostly 57.5 µM), without a hit: top-dose activity change, negative = active. actives 1.9% (n = 340,000). AID 651965, 2013; active = well fitted falling curve with a large enough effect; inconclusive = small, poorly fitted or top-dose-only effect; inactive = no such curve, though single readings can be large or run the other way; also: potency is read from the fitted curve at half-maximal effect; the source files actives as falling curves though it sought activators and does not explain the sign; nearly all actives have a fitted effect of over 65% in size; many hits overshoot -100%
Target sequence (P80244 whole entry, looked up): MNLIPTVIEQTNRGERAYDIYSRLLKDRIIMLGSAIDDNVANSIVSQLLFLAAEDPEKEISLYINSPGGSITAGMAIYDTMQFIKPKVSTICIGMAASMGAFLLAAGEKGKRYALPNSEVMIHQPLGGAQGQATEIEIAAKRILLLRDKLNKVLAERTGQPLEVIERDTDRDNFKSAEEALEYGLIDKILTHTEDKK
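ClpP 10 microg/mL final, pH 8 Tris/KCl buffer with BSA, glycerol, Tween-20; compound pinned in; FRET-FV substrate; RT 20 min; Ex320/Em430; ΔFRET vs ADEP 5.8 microM, DMSO, no enzyme.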
Sfp inh: Sfp phosphopantetheinyl transferase inhibition | Q9F4F7 | Biochemical Sfp PPTase activity, qHTS | Potency, µM, for the others: max response, negative = inhibition, usual class: inhibitors | actives 3.5% (n = 310,000) | AID 1490; active = well fitted inhibition curve with a large enough effect; inconclusive = small, poorly fitted or top-dose-only effect, or another doubt; inactive = no such curve, though single readings can be large or run the other way;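 also: the enzyme is Sfp with the accession as filed and its product quenches rhodamine fluorescence; potency is read from the fitted curve at half-maximal effect; 0% = enzyme reaction without inhibitor and -100% = no enzyme wells; top concentration of the series not given in the record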
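Compounds were incubated with enzyme (final 15 nM) for 15 min at room temperature before substrate addition started the reaction. Fluorescence at 525 nm excitation, 598 nm emission was recorded immediately and after 30 minutes.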
Menin-MLL FL inh: menin-MLL binding inhibition, fluorescein peptide. Fluorescence polarization, fluorescein-MLL peptide displacement from menin. FP activity change, % at 61.4 µM. 290,000 tested, under 10 active. AID 1766; inconclusive = falling polarisation curve, or a change in total fluorescence; inactive = total fluorescence flat and polarisation flat or rising; no compound was filed as active; the % refers to the polarisation; negative = inhibition;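 also: % of control where 0% means no effect; inhibitors lower the polarisation; unlabelled MLL peptide was the positive control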
gsp antag: gsp mutant antagonism; gsp-mutant cells, cAMP HTRF, 30 min; control for the full effect not named in the record; Potency, µM (titrated, usually from 76.9 µM), for the others: top-dose activity change, negative = inhibition, actives largely listed as inhibitors; actives 0.4% (n = 340,000); active = falling curve of any shape with a large fitted effect; inconclusive = falling curve, mostly with a smaller effect; inactive = flat or rising curve; cell line not stated here;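 also: intracellular cAMP measured with PDE inhibitor Ro 20-1724 present during compound exposure; potency is read from the fitted curve at half-maximal effect; % is scaled to controls: 0 for no effect and ±100 for the full control effect; nearly all actives have a fitted effect of over 65% in size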
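HTRF cAMP read-out (cAMP-d2 plus anti-cAMP antibody-K in lysis buffer, 30 min RT). Before lysis, cells are exposed to compounds with […] for 30 min at 37C in DPBS containing Ca/Mg, BSA and Tween 20.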
CtBP-E1A inh: CtBP/E1A binding inhibition | AlphaScreen GST-E1A/His-CtBP binding, 1536-well; hits give low values; control for the full effect not named in the record | actives 0.49% (n = 340,000) | activity change, % (no concentration beside the values) | AID 651724; in the data active means activity change below about -65%; inconclusive means about -30% to -65%; inactive means above about -30%; also: % is scaled to controls: 0 for no effect and ±100 for the full control effect; compound concentration not given in the record
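AlphaScreen with 125 nM GST-E1A and 125 nM His-CtBP (5X stocks) in Tris pH 8.0, 300 mM NaCl, BSA, Tween 20, TCEP. Compounds preincubated 2 h at 37 deg C, then glutathione donor/nickel acceptor beads added for 1 h at 37 deg C in dark.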
gsp agonist: activates gsp, the McCune-Albright syndrome mutation. AID 624287. Potency, µM (highest dose often 76.9 µM), without a hit: at the highest dose activation (cAMP increase), hits mostly activators. gsp mutant cells, cAMP HTRF, 30 min; control for the full effect not named in the record. actives 0.13% (n = 340,000); active = well fitted activation curve with a large enough effect; inconclusive = small, poorly fitted or top-dose-only effect, or another doubt; inactive = no such curve, though single readings can be large or run the other way; cell line not stated here;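 also: phosphodiesterase inhibitor Ro 20-1724 added with compounds to block cAMP breakdown; potency is read from the fitted curve at half-maximal effect; nearly all actives have a fitted effect of over 60% in size; about a fifth of the inactives were tested at one dose only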
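Cells in DMEM/10% FBS with G418 were pretreated with compounds in DMSO plus […] (300 uM stock) for 30 min at 37C. cAMP was measured by HTRF (cAMP-d2 plus anti-cAMP antibody-K) after 30 min at room temperature.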
TRPV1 potentiator: potentiators of human vanilloid receptor 1 (TRPV1) | TRPV1-expressing cells, Fluo-8 calcium influx, capsaicin EC20 potentiation; host cell line not named in the record; control for the full effect not named in the record | potentiation, % at 8.33 µM | actives 0.02% (n = 320,000) | AID 540277; active means potentiation above 80%; inconclusive means 30% to 80%; inactive means below 30%; also: 0% is about no effect
Target sequence (Q8NER1 whole entry, looked up): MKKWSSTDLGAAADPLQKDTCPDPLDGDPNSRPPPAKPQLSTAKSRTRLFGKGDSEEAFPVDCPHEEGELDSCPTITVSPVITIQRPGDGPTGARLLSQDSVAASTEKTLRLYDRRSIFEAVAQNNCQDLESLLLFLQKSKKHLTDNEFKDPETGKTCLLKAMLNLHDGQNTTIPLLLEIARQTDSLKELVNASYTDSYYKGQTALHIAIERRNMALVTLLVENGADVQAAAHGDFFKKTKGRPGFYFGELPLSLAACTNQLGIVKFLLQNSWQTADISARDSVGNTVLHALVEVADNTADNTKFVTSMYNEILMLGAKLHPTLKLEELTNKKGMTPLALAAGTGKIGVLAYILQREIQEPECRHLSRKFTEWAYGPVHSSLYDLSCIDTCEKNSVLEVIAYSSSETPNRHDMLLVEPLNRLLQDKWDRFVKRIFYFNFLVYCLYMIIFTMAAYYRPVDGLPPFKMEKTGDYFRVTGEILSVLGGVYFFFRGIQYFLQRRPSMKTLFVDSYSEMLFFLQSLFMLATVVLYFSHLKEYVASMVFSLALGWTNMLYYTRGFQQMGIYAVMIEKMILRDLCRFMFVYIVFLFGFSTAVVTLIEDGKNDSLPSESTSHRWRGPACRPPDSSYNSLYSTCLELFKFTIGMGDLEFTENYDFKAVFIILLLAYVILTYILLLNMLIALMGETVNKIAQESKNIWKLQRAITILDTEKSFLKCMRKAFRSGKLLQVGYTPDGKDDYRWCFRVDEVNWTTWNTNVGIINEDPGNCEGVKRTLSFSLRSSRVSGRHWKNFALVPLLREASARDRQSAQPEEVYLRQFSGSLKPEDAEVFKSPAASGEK
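Cells expressing TRPV1 were dye-loaded with Fluo-8 and read kinetically: 10 s baseline, 3 min after compound (agonist portion), then 2 min after EC20 capsaicin (allosteric enhancer portion). Calcium-bound dye fluorescence at 480/520 nm.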
Numbers without * were called inactive; [ ] = dose if it differs, or a comment. Not a hit list. About 5.3% of those tested had a hit in this group.

How did COc1ccccc1-c1nnc(SCC(=O)NC2CCS(=O)(=O)C2)n1CCc1ccccc1 (configuration not stated) do in these assays?
ClpP mod: 0.5%; Sfp inh: 8%; Menin-MLL FL inh: 5.1; gsp antag: 2%; gsp agonist: -2%; TRPV1 potentiator: -7

Results for O=C(c1ccc(Cl)c(Cl)c1)c1cc(-c2ccccn2)c(N2CCOCC2)s1 ?
ClpP mod: 1.2%; Sfp inh: -8%; Menin-MLL FL inh: inconclusive; gsp antag: -18%; CtBP-E1A inh: 36; gsp agonist: inconclusive

What do the screens show for `Cc1cc(C)n(CC(O)Cn2c3ccc(Br)cc3c3cc(Br)ccc32)c(=O)n1` (configuration not stated)?
ClpP mod: -1.9%; Sfp inh: -25%; Menin-MLL FL inh: 4.4; gsp antag: -2%; CtBP-E1A inh: -13; gsp agonist: -21%; TRPV1 potentiator: -4

Results for Cc1cc(NCCN2CCOCC2)n2ncc(-c3ccccc3)c2n1 ?
ClpP mod: -10%; Sfp inh: 11%; Menin-MLL FL inh: 0.4; gsp antag: -11%; CtBP-E1A inh: 2; gsp agonist: 0%; TRPV1 potentiator: -3

Results for Cc1ccnc(NC(=O)Cc2ccc(-c3ccccc3)cc2)c1 ?
ClpP mod: -7.4%; Sfp inh: 1%; Menin-MLL FL inh: 7.0; gsp antag: -8%; CtBP-E1A inh: -4; gsp agonist: -3%; TRPV1 potentiator: -1

Results for CC(C)c1ccccc1N=C1SCCCN1C(=O)c1cccc(N2C(=O)CCC2=O)c1 ?
ClpP mod: -2.3%; gsp antag: 5%; CtBP-E1A inh: -21; gsp agonist: inconclusive; TRPV1 potentiator: -4

Results for CC1(c2cccc(Br)c2)NC(=O)N(CC(=O)Nc2ccc3c(c2)OCO3)C1=O (configuration not stated) ?
ClpP mod: -3.0%; gsp antag: -3%; gsp agonist: 2%; TRPV1 potentiator: -4

Results for COCCN1Cc2cccc(C(=O)NC(C)CCc3ccco3)c2C1=O (configuration not stated) ?
Sfp inh: -14%; Menin-MLL FL inh: -0.3; gsp antag: -1%; CtBP-E1A inh: 0; gsp agonist: 9%; TRPV1 potentiator: 26

How did Cc1cc(SCC(=O)OCC(=O)N(C)c2ccccc2)nc2ccccc12 do in these assays?
gsp antag: -8%; CtBP-E1A inh: 5; gsp agonist: 14%[15.4 µM]; TRPV1 potentiator: -12

What do the screens show for `CC(=O)Nc1sc2c(c1C(c1ccc(Cl)cc1)N1CCOCC1)CCCC2` (configuration not stated)?
ClpP mod: -1.1%; Sfp inh: -9%; Menin-MLL FL inh: 7.0; gsp antag: -18%; CtBP-E1A inh: -5; gsp agonist: 7%; TRPV1 potentiator: -9

How did CC1CC(C)CN(S(=O)(=O)c2ccc3c(c2)NC(=O)C(C)C(=O)N3)C1 (configuration not stated) do in these assays?
ClpP mod: 0.8%; Sfp inh: 10%; Menin-MLL FL inh: 2.5; gsp antag: 6%; CtBP-E1A inh: 0; gsp agonist: -65%[inhibitor]; TRPV1 potentiator: 8

What do the screens show for `CC(=O)Oc1ccc2cc(-c3cccnc3)c(=O)oc2c1`?
ClpP mod: -0.4%; gsp antag: -3%; CtBP-E1A inh: -2; gsp agonist: 12%[15.4 µM]

Results for O=C(CSc1cn(CCNC(=O)c2ccccc2)c2ccccc12)NCC1CCCO1 (configuration not stated) ?
ClpP mod: 0.5%; Sfp inh: 7%; Menin-MLL FL inh: 0.4; gsp antag: -7%; CtBP-E1A inh: 4; gsp agonist: -25%; TRPV1 potentiator: -10

What do the screens show for `C=CCn1c(Cc2ccc(OC)cc2)nnc1SCC(=O)NCCc1ccccc1`?
ClpP mod: 0.8%; Sfp inh: 17%; Menin-MLL FL inh: -0.3; gsp antag: 6%; CtBP-E1A inh: 4; gsp agonist: -6%; TRPV1 potentiator: 1

What do the screens show for `CC1(C)CC(=O)CC(C)(C)N1OC(=O)c1ccco1`?
ClpP mod: -1.3%; Sfp inh: 10%; Menin-MLL FL inh: -1.3; gsp antag: 3%; CtBP-E1A inh: 0; gsp agonist: -11%; TRPV1 potentiator: -15

Results for CN1CCN(S(=O)(=O)c2cc([N+](=O)[O-])ccc2N/N=C/c2ccc(Cl)cc2)CC1 ?
ClpP mod: 0.3%; Sfp inh: 3%; Menin-MLL FL inh: 2.6; gsp antag: 18%; CtBP-E1A inh: 7; gsp agonist: -7%[15.4 µM]; TRPV1 potentiator: 2

What do the screens show for `CN(Cc1ccc2nonc2c1)Cc1nc(Cc2cccc(F)c2)no1`?
ClpP mod: -0.8%; Sfp inh: inconclusive; Menin-MLL FL inh: 5.4; gsp antag: 11%; CtBP-E1A inh: 9; gsp agonist: -24%; TRPV1 potentiator: 7

How did O=C(O)C1CCN(C(=O)CSc2nc3cc(Cl)ccc3c(=O)n2Cc2ccccc2)CC1 do in these assays?
Sfp inh: 9%; Menin-MLL FL inh: -0.8; gsp antag: inconclusive; CtBP-E1A inh: -8; gsp agonist: 2%; TRPV1 potentiator: 0

What do the screens show for `CCn1nc(C)cc1C(=O)N1CCCC(C(=O)c2ccc(OC)cc2C)C1` (configuration not stated)?
ClpP mod: 1.7%; Sfp inh: 2%; Menin-MLL FL inh: -1.7; gsp antag: -2%; CtBP-E1A inh: 3; gsp agonist: 13%; TRPV1 potentiator: -11

How did CCc1ccc([C@H]2C(C(=O)O)=C[C@@H](CC)N2S(=O)(=O)c2ccc(C)cc2)cc1 do in these assays?
ClpP mod: -2.4%; gsp antag: -6%; CtBP-E1A inh: -25

Results for COc1ccccc1C(=O)Nc1ccc2c(c1)nc(CN1CCN(C(C)=O)CC1)n2C ?
ClpP mod: -2.6%; Sfp inh: 15%; Menin-MLL FL inh: -0.4; gsp antag: -5%; CtBP-E1A inh: -5; gsp agonist: inconclusive; TRPV1 potentiator: -8

What do the screens show for `CN(C)S(=O)(=O)c1ccc(Cl)c(NC(=O)CN2CCCCCC2)c1`?
Sfp inh: -7%; Menin-MLL FL inh: 3.2; gsp antag: -3%; CtBP-E1A inh: 0; gsp agonist: 18%[15.4 µM]; TRPV1 potentiator: 12

How did Nc1nnnn1/N=C/c1ccccc1OCc1ccccc1 do in these assays?
ClpP mod: -22%; Sfp inh: 8%; Menin-MLL FL inh: 0.5; gsp antag: 1%; CtBP-E1A inh: -5; gsp agonist: -36%; TRPV1 potentiator: 3

What do the screens show for `N#CCCN(CCC#N)C(=S)NC1CC2C=CC1C2` (configuration not stated)?
ClpP mod: -0.3%; Sfp inh: -8%; Menin-MLL FL inh: 1.8; gsp antag: 6%; gsp agonist: 16%; TRPV1 potentiator: -1

What do the screens show for `C[C@H](CO)N1C[C@H](C)[C@@H](CN(C)C(=O)Nc2ccccc2)Oc2ccc(NS(=O)(=O)c3cn(C)cn3)cc2C1=O`?
ClpP mod: -8.0%; gsp antag: 9%; CtBP-E1A inh: 5

Results for N#CCCN1CCN(C(=S)c2ccc(-c3ccc(Cl)cc3)o2)CC1 ?
ClpP mod: -1.3%; Sfp inh: 20µM*; Menin-MLL FL inh: 6.1; gsp antag: -10%; CtBP-E1A inh: -24; gsp agonist: 12%; TRPV1 potentiator: -9

How did CCN1C(=O)/C(=c2\o/c(=C3\C=Cc4ccccc4N3CC)c(=O)n2CC)SC1=S do in these assays?
ClpP mod: 0.2%; Sfp inh: 8%; Menin-MLL FL inh: inconclusive; gsp antag: 0%; CtBP-E1A inh: 6; gsp agonist: inconclusive; TRPV1 potentiator: 1

How did COc1ccc(N(CC(=O)NC(C)(C)C)C(=O)CCC(=O)Nc2nccs2)cc1 do in these assays?
ClpP mod: -0.1%; Sfp inh: 2%; Menin-MLL FL inh: -4.8; gsp antag: 6%; CtBP-E1A inh: 11; gsp agonist: -3%; TRPV1 potentiator: -5

How did CC1(C)CC(=O)C=C(c2n[nH]nc2-c2ccc(F)c(F)c2)C1 do in these assays?
ClpP mod: 1.8%; CtBP-E1A inh: 4; gsp agonist: 4%

Results for CSCCC(NS(=O)(=O)c1ccccc1F)C(=O)Nc1ccncc1 (configuration not stated) ?
ClpP mod: -0.5%; gsp antag: 0%; CtBP-E1A inh: 1; gsp agonist: inconclusive; TRPV1 potentiator: -4

What do the screens show for `C=CC[C@H](CC(=O)NCCO)C(=O)N[C@H](COC(=O)[C@@H](CC=C)CC(=O)OC(C)(C)C)Cc1c[nH]c2ccccc12`?
ClpP mod: -1.1%; gsp antag: -3%; CtBP-E1A inh: -3; gsp agonist: -37%[inhibitor]

Results for Cc1cccc(C(=O)N2CCc3ccccc3C2)c1[N+](=O)[O-] ?
Sfp inh: 10%; Menin-MLL FL inh: -3.7; gsp antag: 1%; CtBP-E1A inh: 6; gsp agonist: -17%; TRPV1 potentiator: -3

What do the screens show for `Cc1ccc(CCN2CC(C(=O)NCCCN(C)Cc3ccccc3)CC2=O)cc1` (configuration not stated)?
ClpP mod: -5.3%; Sfp inh: -5%; Menin-MLL FL inh: -6.5; gsp antag: 9%; CtBP-E1A inh: 4; gsp agonist: 28%; TRPV1 potentiator: 9

Results for CC1(C)CC(=O)C2=C(C1)NC(=O)CC2c1ccccc1F (configuration not stated) ?
ClpP mod: -5.0%; Sfp inh: 15%; Menin-MLL FL inh: -0.6; gsp antag: 1%; CtBP-E1A inh: 2; gsp agonist: -51%[inhibitor]; TRPV1 potentiator: 1

What do the screens show for `Cc1ccc(-c2nn(-c3ccccc3)cc2C(=O)NCCCN2CCCC2=O)cc1`?
ClpP mod: -0.8%; gsp antag: 0%; CtBP-E1A inh: 4; gsp agonist: 20%; TRPV1 potentiator: -29

How did O=C1C(Br)=C(c2ccccc2)C(c2ccccc2)=C1c1ccccc1 do in these assays?
ClpP mod: 0.9%; gsp antag: -8%; CtBP-E1A inh: 9; gsp agonist: -4%

Results for COc1ccc(/C=C/c2nnc(NC(=O)COc3ccccc3)s2)cc1 ?
Sfp inh: 16%; Menin-MLL FL inh: 0.2; gsp antag: 11%; CtBP-E1A inh: -6; gsp agonist: -9%[15.4 µM]; TRPV1 potentiator: -7
